Bioassay records: PubChem, several laboratories
Beta2AR agonist = human beta-2 adrenergic receptor agonism by FAP; P07550; Am2.2-beta2AR cells, FAP receptor internalization, flow cytometry; reference of the scale not given here; response, % (test concentration not listed); 340,000 tested, 0.43% active; AID 504454;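 active means response above a set limit, near 3 SD of response in nonfluorescent compounds, cut at about 42% in these data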;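 further: stock transfer was 100 nL into about 11 µL; a reference agonist was the positive control; negative values mostly stem from fluorescent compounds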
Target sequence (P07550 whole entry, looked up): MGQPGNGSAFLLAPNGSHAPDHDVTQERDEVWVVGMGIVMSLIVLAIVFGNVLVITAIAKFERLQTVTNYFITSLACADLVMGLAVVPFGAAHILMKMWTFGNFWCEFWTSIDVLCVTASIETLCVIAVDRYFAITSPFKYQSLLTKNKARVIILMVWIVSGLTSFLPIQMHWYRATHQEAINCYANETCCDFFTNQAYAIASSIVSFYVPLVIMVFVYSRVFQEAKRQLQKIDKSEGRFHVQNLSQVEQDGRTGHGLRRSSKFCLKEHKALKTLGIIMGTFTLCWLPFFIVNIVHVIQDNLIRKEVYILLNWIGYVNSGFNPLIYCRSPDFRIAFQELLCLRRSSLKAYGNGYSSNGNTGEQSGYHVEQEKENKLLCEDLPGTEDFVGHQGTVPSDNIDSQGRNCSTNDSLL
Calb FLC = affects C. albicans growth with fluconazole. C. albicans CaCi-2 (fluconazole-resistant clinical isolate) + fluconazole, Alamar Blue growth, 48 h. growth inhibition, % (concentration not given with the values). 300,000 tested, 0.57% active. AID 1979;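 active means most replicates above 75%; inconclusive means exactly half above 75%; inactive means most below 75%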;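 further: all wells also contain fluconazole at 8 µg/ml as a sub-toxic cotreatment; 0% = median of DMSO wells and 100% = median of geldanamycin control wells; wells of about 8 µL received 7.5 nL stock; the first replicate is given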
A1 inh = inhibitors of the anti-apoptotic protein A1, read as caspase activation; MEF A1-2A-BIM cells, Caspase-Glo 3/7 luminescence, 3 h; percent of clofoctol response, vehicle zero; caspase activation, % (no concentration beside the values); 330,000 tested, 0.066% active; AID 2462;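 active means over half of replicate activation scores above 10%, or exactly half above 10 with the replicate mean above 10; inconclusive means replicate mean below 10 yet half the replicates above 10; inactive means over half of replicates below 10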;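 further: wells of about 30 µL received 50 nL stock; many hits fall short of the cut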
UCH37 inh = blocks the human deubiquitinase UCH37. inhibition, % (concentration not given with the values). purified proteasome/UCH37, Ub-AMC cleavage fluorescence. 330,000 tested, 0.33% active. Q9Y5K5. AID 588478;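 active means mean of two replicates above 20%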;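 further: 0% = compound-free wells with enzyme and 100% = wells lacking proteasome; stock transfer was 100 nL into about 20 µL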
Target sequence (Q9Y5K5 whole entry, looked up): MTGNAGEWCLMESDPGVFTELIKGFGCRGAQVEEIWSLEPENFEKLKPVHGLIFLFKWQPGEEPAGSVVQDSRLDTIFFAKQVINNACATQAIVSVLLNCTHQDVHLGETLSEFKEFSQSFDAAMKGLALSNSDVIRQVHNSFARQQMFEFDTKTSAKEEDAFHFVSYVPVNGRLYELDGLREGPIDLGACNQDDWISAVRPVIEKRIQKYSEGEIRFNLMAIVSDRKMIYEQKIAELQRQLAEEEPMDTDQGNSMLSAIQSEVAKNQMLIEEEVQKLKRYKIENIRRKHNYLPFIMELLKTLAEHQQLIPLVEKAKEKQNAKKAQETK
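Assay system: Proteasome-bound UCH37. Buffer or medium: pH 7.4 Tris-HCl (50 mM) with ovalbumin, ATP-MgCl2, DTT. Incubation: 30 min preincubation with enzyme, 25 min cleavage at room temperature. Measured by: fluorescence, ex 355 nm, em 460 nm. Read-out basis: percent inhibition. Control set: wells without proteasome as full block, compound-free enzyme plus substrate as uninhibited.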
T cruzi inh = T. cruzi replication inhibition | T. cruzi beta-gal in NIH3T3, luminescence, 90 h | inhibition, % (concentration not given with the values) | 300,000 tested, 1.4% active | AID 1885;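 active means mean inhibition across valid replicates above about 55%, limit read from the data; inconclusive means mean below that limit but half or more replicates reach it; inactive means mean below it, under half of replicates reach it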;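 further: signal also drops with host cell toxicity which is not excluded here; 0% = plate median of DMSO wells and 100% = zero luminescence signal; higher percent means less beta-gal luminescence so fewer parasites; stock transfer was 50 nL into about 50 µL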
Beta cell apopt = blocks beta cell apoptosis. INS-1E cytokine-induced death, ATP luminescence, 48 h; percent of positive-control rescue, neutral wells zero. protection from apoptosis, % (no concentration beside the values). 300,000 tested, 0.8% active;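 active means all replicates at 75% or more, or half of them and the mean; inconclusive means half reach 75% but not the mean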;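 further: 0% = cytokine-treated negative control wells and 100% = positive control rescue; higher means more ATP so stronger rescue from cytokine killing; wells of about 40 µL received 100 nL stock; the first replicate is given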
LANA-H2A inh = blocks KSHV LANA binding to histone H2A/H2B. cell-free LANA-H2A/H2B peptide, fluorescence polarization. inhibition, % (concentration not given with the values). 320,000 tested, 0.6% active. AID 2629; in the data active means inhibition mostly above about 10%, no sharp cut-off; inactive means mostly below about 6.7%;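 further: stock transfer was 7.5 nL into about 10 µL; 0% = median of vehicle wells and 100% = median of positive control wells; one replicate is shown; the record names a cut of 25% in any replicate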
RanGTP-Impb inh = disruptors of Ran-importin-beta complex formation – biochemical, FRET, CFP-Ran, YFP-importin-beta, homogeneous, primary screen | cell-free CFP-Ran/YFP-importin-beta FRET ratio | inhibition, % (test concentration not listed) | 300,000 tested, 1.1% active | AID 2216;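 active means most replicates above 15%; inconclusive means exactly half above 15%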;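 further: 0% = DMSO wells and 100% = Ran loaded with GDP instead of GTP; wells of about 40 µL received 100 nL stock; the first replicate is given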
The depositor's hits bear a star; ? = inconclusive; . = no result given. No enrichment for hits; overall some 4.3% were active at least once.

entry	Compound	T cruzi inh	UCH37 inh	RanGTP-Impb inh	A1 inh	Calb FLC	Beta2AR agonist	LANA-H2A inh	Beta cell apopt
1	Cc1cc(C(F)F)nn1CC(=O)NC1C(=O)N2C(C(=O)O)=C(CSc3nnnn3C)CSC12 (stereo unspecified)	2	3.5	-2.0	0.3	-1	-9	-7.0	1
2	COc1ccc(/C=C/C(=O)Nc2cc(S(=O)(=O)N3CCCCC3)ccc2N2CCCCC2)cc1OC	42	-0.4	0.4	0.4	37	7	2.6	1
3	Cc1c(NC(=O)CSc2ccc(Cl)cc2)cccc1-c1nc2ncccc2o1	23	3.0	1.2	-0.2	-47	-10	4.0	-7
4	CNc1nc(C)c(C#N)c(-c2ccccc2)c1C(C)=O	0	-2.3	4.3	0.6	-10	5	-1.0	3
5	Cc1ccc(CN2CCN(Cc3ccc4ncccc4c3)CC2CCO)cc1 (stereo unspecified)	50	-1.7	1.9	-0.6	9	-14	-2.2	-2
6	O=C(Nc1ccccc1)OC1CCCCc2cccnc21 (stereo unspecified)	17	2.9	0.5	0.0	2	-4	-0.8	-2
7	Cc1nn(-c2ccccc2)c(Cl)c1/C=N/Nc1ccc(Cl)c(C(=O)O)c1	0	.	5.1	-6.9	-7	-2	-12	-7
8	O=C(O)CNC(=S)N(Cc1ccccc1)Cc1ccccc1F	-12	4.6	7.4	-0.2	4	-6	-1.0	-1
9	COc1ccc(NC(=O)CSc2nc3ccccc3c(=O)n2-c2ccc3c(c2)OCO3)c(OC)c1	42	4.2	-2.5	-1.1	-14	-5	-5.0	-2
10	Cc1c(Cl)cccc1NC(=S)NCc1ccc(F)cc1	0	2.4	0.6	0.2	-12	0	-5.3	.
11	CC1(C(=O)OCC(=O)Nc2ccc3ccccc3c2)CC1(Cl)Cl (stereo unspecified)	2	3.7	3.7	-0.6	6	1	-1.8	1
12	N=C1/C(=C\c2ccc(SCc3ccco3)o2)C(=O)N=C2SC=NN12	0	3.0	4.6	-0.6	-5	13	-5.5	1
13	Cc1csc(NC(=O)Cc2coc3cc(C)c(C(C)C)cc23)n1	8	-0.6	2.5	0.2	5	-2	-2.0	3
14	Cn1ncc(C#N)c1/N=C/N1CCCCCC1	-12	.	0.9	-0.3	-23	5	2.5	-10
15	O=S(=O)(c1ccccc1)N1CCN(Cc2ccccc2)CC1	7	0.9	2.0	-1.4	-1	1	1.4	.
16	COc1ccc(-c2csc(NC(=O)[C@H](C)N3C(=O)C4CC=CCC4C3=O)n2)cc1OC (stereo partly specified)	.	5.2	.	-1.9	.	3	-1.1	-2
17	Cc1ccc(-c2cn3cc([N+](=O)[O-])ccc3n2)cc1	-23	3.9	?	-5.6	-6	2	10	-9
18	O=C(Nc1cccc(F)c1)C1CCCN(S(=O)(=O)c2ccc(-n3cnnn3)cc2)C1 (stereo unspecified)	-9	-0.6	-3.7	0.7	0	5	-0.9	-6
19	Cn1ncc(N=Cc2c(O)ccc3ccccc23)c1C(=O)Nc1cccc(Cl)c1	10	3.4	-3.0	-0.2	5	23	8.2	21
20	COc1ccc(CCN(Cc2cc3cc(C)ccc3[nH]c2=O)C(C)=O)cc1OC	2	-1.2	-2.1	0.0	12	-7	-3.7	-7
21	Cc1onc(-c2c(F)cccc2Cl)c1C(=O)Nc1c(C)n(C)n(-c2ccccc2)c1=O	4	1.8	-1.2	-0.2	-2	-2	2.3	6
22	CCCC(=O)Nc1cccc(NC(=O)c2cccc([N+](=O)[O-])c2C)c1	2	5.6	-0.1	-0.7	-13	-3	1.0	.
23	COC(=O)c1cc(S(=O)(=O)NCCc2ccccc2)c[nH]1	-2	2.7	?	0.6	-5	9	-0.5	-1
24	CC1(C)NC(=O)N(CCOc2cccc(Oc3ccccc3)c2)C1=O	19	2.6	1.2	-0.1	28	-3	3.0	-5
25	Cc1nc(NCCC(C)C)c2nnn(Cc3ccccc3)c2n1	18	4.9	-3.0	0.5	5	-2	-1.6	23
26	CCOc1cccc(-c2cc(C(=O)Nc3ccon3)c3ccccc3n2)c1	35	-22	5.0	0.8	4	8	3.9	1
27	Cc1ccc(CNS(=O)(=O)c2ccc(CN3C(=O)c4cccnc4C3=O)s2)o1	-2	2.3	2.5	1.1	-1	-5	3.1	0
28	CN(Cc1ccccc1)S(=O)(=O)c1ccc(NS(C)(=O)=O)cc1	-3	5.0	4.5	0.3	6	8	9.5	3
29	O=C(NCC1CCCN(C(=O)c2cccc(C(F)(F)F)c2)C1)c1ccc(F)cc1 (stereo unspecified)	5	-0.5	3.8	0.2	-3	-9	0.6	-2
30	CN(C)Cc1cc2ccccc2c2c1COC2	-13	-0.6	1.0	-0.8	-1	-3	-4.9	-5
31	O=c1[nH]c(C2CCCN(S(=O)(=O)c3ccccc3)C2)nc2c1nnn2Cc1ccccc1 (stereo unspecified)	6	6.9	?	0.5	-13	0	-4.8	.
32	COc1ccc(C(=O)NCc2ccncc2)cc1OC	-8	2.0	-0.8	-0.4	13	-3	11	-7
33	CCc1ccc(-c2cn(-c3nc(C)cc(C)n3)c(=N)o2)cc1	20	5.2	-2.0	-0.3	-4	9	0.2	13
34	NC(=O)C1=C[C@@H](c2ccc3c(c2)OCO3)C[C@@H](OCCCCO)O1	4	-1.5	2.5	-0.4	-2	-2	-1.0	-6
35	O=C(Nc1ccc2c(c1)OCO2)C1CC(c2ccccc2O)=NO1 (stereo unspecified)	-7	-0.6	-2.7	0.5	17	1	0.9	-2
36	O=c1c2ccccc2ncn1-c1ccc(Cl)cc1[N+](=O)[O-]	19	0.6	-2.0	1.3	8	1	-1.4	5
37	Fc1ccc(-c2cc(-c3nnc4n3CCCCC4)c3ccccc3n2)cc1	-2	-9.0	.	0.4	?	-1	1.4	97*
38	O=C(Nc1ccccc1F)c1cc(S(=O)(=O)N2CCOCC2)cs1	-9	2.8	-4.1	0.2	-1	2	-8.1	-3
39	O=C(C1CC(c2ccc(F)cc2)=NO1)N1CCCCC1 (stereo unspecified)	-20	5.4	-3.7	-0.6	1	-8	6.4	-1
40	O=C(Nc1ccc(SC(F)F)cc1)C1=CC=CN2CCS(=O)(=O)N=C12	.	-14	.	-0.6	.	-1	-4.8	-3
41	COC(=O)CN(c1ccc(OCc2ccccc2)cc1)S(C)(=O)=O	-6	3.1	-0.8	-1.1	-12	5	-2.0	-3
42	Cn1nc(-c2ccc(C(=O)NC3CCCCC3)cc2)c2ccccc2c1=O	11	1.3	-2.6	-0.3	2	2	-3.7	.
43	CCOC(=O)COc1ccc(S(=O)(=O)N2CCN(c3ccc(F)cc3)CC2)cc1	-8	3.3	-0.4	0.4	9	16	1.4	-2
44	OC1(c2ccc(Cl)c(Cl)c2)C[n+]2ccccc2N1Cc1ccccc1 (stereo unspecified)	-12	-95	3.1	0.5	-7	23	-3.2	-3
45	CC(=O)Nc1ccc(S(=O)(=O)NC(C(=O)O)C2=CCC=CC2)cc1 (stereo unspecified)	0	1.4	8.4	-0.5	40	3	0.8	0
46	CCCn1c(N)c(C(=O)CSc2nncs2)c(=O)[nH]c1=O	.	-1.1	.	-0.6	.	-14	2.4	6
47	COc1ccc(O)c(C(=O)CC(=O)c2ccccc2C)c1	-2	-12	-0.3	-0.9	?	2	-1.6	5
48	O=S(=O)(Nc1cccc(-n2cnnn2)c1)c1ccccc1	-4	2.7	-2.9	0.6	5	4	-0.8	-3
49	CC[C@H](C)[C@H](NC(=O)OCc1ccccc1)C(=O)Nc1ccc(NC(C)=O)cc1	-9	1.7	-1.9	0.9	-9	-1	-4.2	.
50	Clc1ccc(-c2n[nH]c3c2Cc2ccccc2-3)cc1Cl	19	-0.9	-4.5	0.1	-7	.	-4.4	-1
51	Cc1nc(-c2ccc(S(=O)(=O)Nc3ccc(Br)cc3F)cc2)co1	-9	2.5	1.6	0.5	23	9	1.7	-2
52	CCCCS(=O)(=O)/C=C\C1C2C=CC(C2)C1S(=O)(=O)CCCC (stereo unspecified)	7	4.8	-0.1	0.1	1	-2	0.4	-2
53	CCN(CCNC(=O)C1CCN(Cc2nc(-c3ccc(Cl)cc3)oc2C)CC1)c1ccccc1	8	3.3	-3.4	1.6	?	14	-2.5	.
54	COC(=O)c1cnc(N2CCCN(S(=O)(=O)c3ccc(C(F)(F)F)cc3)CC2)nc1C(F)(F)F	55*	-18	-1.1	0.4	4	-8	0.1	-1
55	Cc1nc2ccccc2c(=O)n1/N=C/c1c(O)ccc2oc3c(c12)CCCC3	28	.	-0.3	1.8	0	36	1.4	93*
56	CCOc1ccc(C(=O)NCc2ccccc2)cc1Br	2	4.2	3.7	0.0	10	-1	-10	-8
57	CC1=NN(c2ccccc2)C(=O)C1/C=C1\NC(=S)NC1=O (stereo unspecified)	0	1.5	-1.8	0.4	6	4	2.0	3
58	O=C(O)c1cccc(Cn2c(Cl)c(/C=N/NC(=O)c3cc4ccccc4cc3O)sc2=O)c1	-4	.	-4.3	0.0	1	2	1.9	-1
59	CCC(C(=O)OCC(=O)Nc1cc(Cl)cc(Cl)c1)c1ccccc1 (stereo unspecified)	49	2.3	-2.0	-0.1	0	8	-5.4	8
60	C=CCN(c1ccccc1)S(=O)(=O)c1cc(C(=O)NC2=NCCS2)ccc1Cl	15	5.4	3.2	1.0	29	-3	-7.2	-7

(continued)
entry	Compound	T cruzi inh	UCH37 inh	RanGTP-Impb inh	A1 inh	Calb FLC	Beta2AR agonist	LANA-H2A inh	Beta cell apopt
61	COc1ccc(N(C(C)C(=O)NC2CCCCCC2)S(C)(=O)=O)cc1 (stereo unspecified)	-11	0.9	3.5	-1.1	24	2	-0.5	0
62	C[C@H]1COC(=O)[C@@H](Cc2ccc(F)cc2)C/C=C\C[C@H](CC(=O)N(CCO)Cc2ccccc2)C(=O)N1	.	-0.7	.	-0.2	.	4	0.7	-5
63	CCOc1ccccc1N1CCN(C(=O)c2ccc3[nH]c4c(c3c2)CCCC4)CC1	14	2.3	8.9	0.5	-1	-5	1.0	.
64	Cc1ccc2sc(N3CCN(CCNC(=O)c4ccco4)CC3)nc2c1C	8	3.7	7.7	0.3	4	2	-1.9	.
65	CSC(=S)N/N=C/c1ccc(N(C)C)cc1	24	.	0.9	-2.3	3	-3	4.4	14
66	CCOC(=O)c1ccccc1NC(=O)COC(=O)c1c(CC)noc1C	3	0.3	-0.4	-0.7	9	-2	0.6	-2
67	COc1ccc(N2CCN(C(=O)CSc3nnnn3C3CC3)CC2)cc1	.	7.2	.	-1.7	.	-11	-3.0	-2
68	CC1CCN(CC(C)OC(=O)c2ccco2)CC1 (stereo unspecified)	2	2.7	1.7	0.3	-2	7	-2.8	2
69	O=C(NCC1CCCO1)C(=O)c1c[nH]c2ccccc12 (stereo unspecified)	-19	9.0	-0.3	-1.4	34	2	1.6	-3
70	CC1(c2ccc3ccccc3c2)NC(=O)N(CC(=O)NCc2cccs2)C1=O (stereo unspecified)	10	4.1	0.4	0.6	-19	-2	-2.2	-1
